Source: PubChem (National Center for Advancing Translational Sciences (NCATS))
GLA inh pH 4.5 = alpha-galactosidase A (human) inhibition, pH 4.5; purified enzyme, 4-MU-alpha-Gal fluorescence, pH 4.5; activity change, negative = inhibition, % at 105 µM; 230,000 tested, under 10 active; inconclusive = small, poorly fitted or top-dose-only inhibition, or a rising curve; inactive = flat fitted curve, though single readings scatter; no compound was filed as active;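 further: 0% = full activity with enzyme and -100% = basal without enzyme; dose as in the result columns while the protocol names 77 µM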
Rango complex inh = Rango-importin beta binding inhibition; Potency, µM (titrated, usually from 92.2 µM), for inactives: at the top dose inhibition of complex formation; 0.031% of 340,000 active; Q14974; Rango CFP/YFP FRET sensor + importin beta, 45 min; AID 540263; active = rising FRET ratio curve, often small or poorly fitted; inconclusive = mostly compound fluorescence or quenching in the first reads; inactive = flat curves in all reads;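 further: potency means the concentration at half of the fitted maximal effect; 0% = DMSO wells and 100% = buffer wells lacking importin beta; nearly all actives have a fitted effect of over 15% in size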
Target sequence (Q14974 whole entry, looked up): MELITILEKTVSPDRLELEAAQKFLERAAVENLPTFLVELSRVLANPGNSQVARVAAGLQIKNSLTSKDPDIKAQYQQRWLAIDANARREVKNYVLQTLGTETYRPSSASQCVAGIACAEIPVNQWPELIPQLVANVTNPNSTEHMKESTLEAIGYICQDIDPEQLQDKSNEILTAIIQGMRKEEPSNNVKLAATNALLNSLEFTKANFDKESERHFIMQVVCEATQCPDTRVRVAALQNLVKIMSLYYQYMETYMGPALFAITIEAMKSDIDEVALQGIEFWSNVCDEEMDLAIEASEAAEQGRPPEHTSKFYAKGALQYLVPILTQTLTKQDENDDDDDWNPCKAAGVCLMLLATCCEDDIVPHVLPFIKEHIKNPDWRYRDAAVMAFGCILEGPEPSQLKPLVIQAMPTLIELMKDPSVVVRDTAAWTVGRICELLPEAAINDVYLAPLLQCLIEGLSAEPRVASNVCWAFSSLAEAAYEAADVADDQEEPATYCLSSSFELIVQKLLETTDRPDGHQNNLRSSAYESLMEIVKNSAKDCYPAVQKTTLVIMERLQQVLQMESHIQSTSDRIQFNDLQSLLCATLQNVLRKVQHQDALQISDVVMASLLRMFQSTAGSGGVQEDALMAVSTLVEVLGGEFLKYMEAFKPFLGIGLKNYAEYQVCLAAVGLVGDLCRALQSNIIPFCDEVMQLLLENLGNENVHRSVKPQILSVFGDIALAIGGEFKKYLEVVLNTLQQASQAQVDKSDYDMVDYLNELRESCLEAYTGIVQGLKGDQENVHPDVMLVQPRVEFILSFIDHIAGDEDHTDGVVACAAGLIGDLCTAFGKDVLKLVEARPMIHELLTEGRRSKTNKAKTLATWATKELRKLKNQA
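Inhibition scored from the CFP 486 nm/YFP 530 nm FRET ratio 45 min after adding 0.125 microM importin beta to 50 nM Rango biosensor preincubated 5 min with compound (room temperature, PBS with DTT, Tween-20, BSA). No-importin wells as positive control.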
miR-21 reporter = miR-21 reporter, rising signal; HeLa miR-21 FLuc reporter, luciferase, 48 h; Potency, µM (doses to about 38.3 µM), without a hit: top-dose reporter change, positive = more light; 340,000 tested, under 10 active; active = well fitted rising curve with a large enough effect; inconclusive = small, poorly fitted or top-dose-only effect; inactive = no such curve, though single readings can be large or run the other way;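 further: % of control where 0% means no effect; miR-21 action dims this reporter so a rising signal means less miR-21 action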
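Compounds were titrated across several concentrations (up to approximately 40 uM) and incubated 48 hours with HeLa miR-21-FLuc reporter cells (miR-21 target sequence downstream of FLuc, endogenous miR-21). Readout was firefly luciferase luminescence after lytic detection reagent.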
Rango dissoc inh = inhibitors of RanGTP-induced Rango-importin beta complex dissociation. Biochemical FRET Rango-importin beta, RanGTP-induced dissociation. Potency, µM (titrated, usually from 46.1 µM), for inactives: top-dose activity change, negative = inhibition. 0.071% of 340,000 active; active means falling FRET ratio curve, often poorly fitted, with flat reads before Ran was added; inconclusive means other falling curves, or compound fluorescence or quenching; inactive means flat or rising ratio curve;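 further: potency means the concentration at half of the fitted maximal effect; % of control where 0% means no effect; nearly all actives have a fitted effect of over 45% in size; -100% = wells without RanGTP and RCC1; the record marks most hits as doubtful in a second field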
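Recombinant Rango FRET biosensor (EYFP–snurportin 1 IBB–cerulean CFP10) at 0.1 uM premixed with 0.25 uM importin beta in PBS, 1 mM DTT, 0.02% Tween-20, 0.1% BSA. Compound added 5 min; RanGTP-RCC1 (0.6 uM Ran, 2 mM GTP, 0.2 uM RCC1) then triggers release, read at 45 min.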
The depositor's hits bear a star; ? = inconclusive; · = no result given. Only part of the results is shown; rates above refer to the full screens.

GLA inh pH 4.5 | Rango complex inh | miR-21 reporter | Rango dissoc inh | Compound
-4 | 0.2% | -15% | -8% | O=C(NCc1ccco1)c1ccc(COCC(F)(F)C(F)F)cc1
-4 | -1.9% | 2% | -5% | COc1cccc(OC)c1C(=O)Nc1ccc(N2CCN(S(C)(=O)=O)CC2)cc1
-6 | -0.6% | -1% | 7% | Cc1nnc2sc(-c3ccco3)nn12
-3 | 1.7% | -9% | 4% | CCc1nnc(NC(=O)CSc2ccc(-c3ccccc3OC)nn2)s1
5 | -0.1% | -2% | -11% | O=C(Oc1cccc2cccnc12)c1ccc(N2C(=O)C3C4CCC(C4)C3C2=O)cc1 (stereo not drawn)
4 | 4.4% | 26% | 1% | CC1=CC(C)(C)N(S(=O)(=O)c2ccc(F)cc2)c2ccccc21
-9 | 1.3% | -2% | 2% | CCN(CC)C(c1ccc(F)cc1)c1nnnn1CC1CCCO1 (stereo not drawn)
· | -2.5% | -12% | -22% | O=C(N/N=C/c1c(F)cccc1Cl)C1CC1
0 | 0.8% | -25% | 4% | COC(=O)c1ccc(N2CCOCC2)c(F)c1
· | 7.6% | · | -29% | CCOC(=O)C1=C(COC(=O)c2ccco2)NC(=O)NC1CC (stereo not drawn)
· | ? | -6% | -1% | CS(=O)(=O)N(CC(=O)N1CCCC1)Cc1ccc(Cl)c(Cl)c1
· | 2.1% | · | -7% | Cc1ccc(N(Cc2ccccc2)C(=O)c2ccc(C)c(S(=O)(=O)N3CCOCC3)c2)cc1
· | -2.3% | 0% | -9% | O=C(C[n+]1cc(Br)cc(Br)c1)c1ccccc1
· | -0.1% | · | 2% | C[C@H](CO)N1C[C@H](C)[C@@H](CN(C)S(=O)(=O)c2ccc(F)cc2)Oc2c(NC(=O)c3ccncc3)cccc2C1=O
-5 | 3.9% | 1% | 0% | Cc1cc(-c2ccccc2)nc2cc(C(N)=O)nn12
1 | -1.2% | -3% | 2% | COc1cc(Cl)c(C)cc1NC(=O)COC(=O)c1cnc(C)cn1
-4 | 2.1% | ? | 2% | CC(CNC(=S)Nc1cc(F)cc(F)c1)CSc1ccc(Cl)cc1 (stereo not drawn)
1 | -6.3% | 1% | 15% | Cc1nn(C)c(C)c1CN(C)C(=O)c1cnn2c1NC(c1ccccc1)CC2C(F)(F)F (stereo not drawn)
· | -0.4% | -2% | -9% | COc1cccc(/C=N/NC(=O)c2nnn(-c3nonc3N)c2CN(C)c2ccccc2)c1
3 | 1.2% | -4% | 9% | CCCCOc1ccccc1P(=O)(O)CP(=O)(c1ccccc1)c1ccccc1
-8 | 0.3% | -48% | -5% | CC(CC(=O)Nc1ccc2c(c1)OCCO2)c1ccccc1 (stereo not drawn)
· | -0.2% | 1% | 13% | O=C(NC1CCCCC1)c1cc(N2C(=O)CCC2=O)ccc1Cl
· | -2.6% | · | 39% | O=[N+]([O-])c1ccccc1CNCCCCO
· | 0.4% | -5% | -13% | CCOc1ccccc1CNC(=O)C1CCCN(c2nn3c(=O)cc(C)nc3s2)C1 (stereo not drawn)
-3 | -0.5% | -11% | -13% | CC1(C)Cc2nc(-c3ccccc3)n3cnnc3c2CO1
2 | 2.7% | -18% | -12% | CN(C)CC(=O)N1c2ccccc2CCc2ccc(NC(=O)c3ccc(N)cc3)cc21
-3 | 2.4% | -3% | 11% | CCOC(=O)N1CCN(C(=O)C2CCN(S(=O)(=O)c3cc(Cl)ccc3Cl)CC2)CC1
· | -5.7% | · | 11% | Cc1cc(C)nc(NNS(=O)(=O)c2c(F)cc(F)cc2Br)n1
· | 1.5% | 0% | 16% | C#CC(CCN1CCCCC1)(OC)c1ccccc1 (stereo not drawn)
-3 | 0.5% | -2% | -8% | COc1ccc(NC(=S)Nc2ncccc2C)c(OC)c1
· | -0.3% | -7% | 0% | O=c1nc(-c2ccccc2Cl)c2cc(F)ccc2[nH]1
4 | -2.3% | -2% | -2% | Cc1noc(C)c1S(=O)(=O)N(C)CC(=O)Nc1ccc(F)cc1
-9 | 0.5% | -7% | 11% | COC(=O)Nc1ccc(NC(C)=O)cc1
8 | 0.1% | -28% | -1% | Cc1ccc(NC(=O)Cc2nc(CSc3nnc(-c4ccc5c(c4)OCO5)o3)cs2)cc1
· | -0.1% | -3% | -18% | CCN(CC)CCCNC(=O)COc1ccc2oc3c(c2c1)CCCC3
-3 | -1.6% | -24% | -21% | C/C(=N\Nc1nc2ccccc2[nH]1)c1cccs1
-2 | 0.0% | 1% | -2% | O=C(COC(=O)c1ccc(Cl)nc1)Nc1ccc2c(c1)OCO2
· | -2.6% | · | 1% | O=C(COC(=O)/C=C/c1ccc(Cl)cc1)NC1CCCCCC1
-12 | 3.7% | 11% | 2% | Cc1cc(C)c(S(=O)(=O)n2ccc3ccccc32)c(C)c1
-2 | -3.0% | 3% | -21% | CN1C(=O)Cc2cc(S(=O)(=O)NCc3cccs3)ccc21

Gathered by group: the compounds so far containing four or more nitrogen atoms.
GLA inh pH 4.5 | Rango complex inh | miR-21 reporter | Rango dissoc inh | Compound
-6 | -0.6% | -1% | 7% | Cc1nnc2sc(-c3ccco3)nn12
-3 | 1.7% | -9% | 4% | CCc1nnc(NC(=O)CSc2ccc(-c3ccccc3OC)nn2)s1
-9 | 1.3% | -2% | 2% | CCN(CC)C(c1ccc(F)cc1)c1nnnn1CC1CCCO1 (stereo not drawn)
· | -0.1% | · | 2% | C[C@H](CO)N1C[C@H](C)[C@@H](CN(C)S(=O)(=O)c2ccc(F)cc2)Oc2c(NC(=O)c3ccncc3)cccc2C1=O
-5 | 3.9% | 1% | 0% | Cc1cc(-c2ccccc2)nc2cc(C(N)=O)nn12
1 | -6.3% | 1% | 15% | Cc1nn(C)c(C)c1CN(C)C(=O)c1cnn2c1NC(c1ccccc1)CC2C(F)(F)F (stereo not drawn)
· | -0.4% | -2% | -9% | COc1cccc(/C=N/NC(=O)c2nnn(-c3nonc3N)c2CN(C)c2ccccc2)c1
· | 0.4% | -5% | -13% | CCOc1ccccc1CNC(=O)C1CCCN(c2nn3c(=O)cc(C)nc3s2)C1 (stereo not drawn)
-3 | -0.5% | -11% | -13% | CC1(C)Cc2nc(-c3ccccc3)n3cnnc3c2CO1
2 | 2.7% | -18% | -12% | CN(C)CC(=O)N1c2ccccc2CCc2ccc(NC(=O)c3ccc(N)cc3)cc21
· | -5.7% | · | 11% | Cc1cc(C)nc(NNS(=O)(=O)c2c(F)cc(F)cc2Br)n1
8 | 0.1% | -28% | -1% | Cc1ccc(NC(=O)Cc2nc(CSc3nnc(-c4ccc5c(c4)OCO5)o3)cs2)cc1
-3 | -1.6% | -24% | -21% | C/C(=N\Nc1nc2ccccc2[nH]1)c1cccs1

The list continues.
GLA inh pH 4.5 | Rango complex inh | miR-21 reporter | Rango dissoc inh | Compound
· | -1.6% | -5% | -7% | O=C(Nc1nonc1-c1ccc(Cl)cc1)c1ccco1
-2 | 0.4% | 1% | 6% | Cc1noc(C)c1N=Nc1ccc(Br)cc1C(=O)O
· | -2.2% | -8% | -7% | Cc1ccc2[nH]c3c(c2c1)CCCC3NCCO (stereo not drawn)
0 | 4.5% | -5% | 10% | COC(=O)CSc1nnc(CSc2nc(C)cc(C)n2)o1
-6 | -2.7% | ? | 11% | CC(NS(=O)(=O)c1ccc(OCC(=O)Nc2cccc([N+](=O)[O-])c2)cc1)c1ccccc1 (stereo not drawn)
· | -4.0% | 10% | -6% | O=C(CN1C(=O)NC2(CCCCC2)C1=O)NCCc1c[nH]c2ccccc12
· | -3.3% | 12% | -2% | CC(C)C[C@@H](C(=O)NC1CC1)N1C(=O)N2CCc3c([nH]c4ccccc34)[C@@]2(C)C1=O
· | -5.2% | · | -1% | COc1ccc2sc(-c3ccc(N(C)C)cc3)c(-c3cnc(OC)nc3)c2c1
· | 2.0% | -15% | -10% | O=C(N/N=C/c1ccc2c(c1)OCO2)c1ccc2c(c1)OCO2
8 | -0.7% | -31% | -6% | Cc1occc1C(=O)NCCc1ccc(Cl)cc1
· | -3.7% | 7% | 0% | COc1cc(COc2ccc(-c3nnco3)cc2)ccc1OC(F)F
· | 2.3% | · | -7% | O=C(O)C1=C[C@@H](c2ccccc2)C[C@@H](OCCCCO)O1
-5 | 4.6% | -11% | -13% | CCc1ccc2c(c1)C(c1cccs1)=NNC(c1cccnc1)=N2
1 | -0.1% | -3% | -16% | Cc1ccc(NC(=O)COC(=O)CCC(=O)c2ccc(C(C)(C)C)cc2)c([N+](=O)[O-])c1
-4 | 0.6% | -15% | ? | COc1ccc(NC(=O)c2ccc(S(=O)(=O)N(C)C)cc2)cc1
· | -0.1% | · | 1% | C=CCC12C=C(OC)C(=O)OC(OC)(C1O)[C@H](c1ccc3c(c1)OCO3)[C@H]2C (stereo partly drawn)
5 | 0.2% | -12% | 18% | O=C(NCC1CCCO1)C1CC(c2ccccc2Cl)=NO1 (stereo not drawn)
4 | 0.7% | 0% | -8% | NS(=O)(=O)c1ccc(CCNC2CC(=O)N(Cc3ccccc3)C2=O)cc1 (stereo not drawn)
· | -3.5% | · | -6% | COc1ccccc1C(=O)Nc1ccc(OCC(=O)N2CCCCC2C)cc1 (stereo not drawn)
-4 | -0.9% | -30% | -4% | O=C(NCCc1cccs1)C1CC(c2ccc([N+](=O)[O-])cc2)=NO1 (stereo not drawn)
· | 0.2% | 0% | 1% | CN(C)S(=O)(=O)c1cccc(NC(=O)Cc2ccc(-c3ccccc3)cc2)c1
-1 | 0.1% | 0% | 14% | O=c1[nH]c(C2CCCN(S(=O)(=O)c3ccc(F)cc3)C2)nc2c1nnn2Cc1ccccc1 (stereo not drawn)
· | 3.2% | -1% | -16% | O=C(Nc1c(-c2ccc(F)cc2)nc2ccccn12)c1ccc(F)cc1
· | 1.0% | -1% | 7% | Cc1cc(C(=O)Nc2ccccc2C(=O)O)ccc1NC(=O)COc1ccccc1Cl
· | -0.7% | -5% | -1% | COc1ccc(OC)c(NC(=O)CCN2CCN(C)CC2)c1
1 | -0.7% | 15% | -1% | CCCn1c(SCC(=O)Nc2cccc(S(=O)(=O)N(C)C)c2)nc2ccccc2c1=O
-25 | -0.4% | 26% | 20% | COCCCN1CCN(C2Cc3ccccc3Sc3ccc(Cl)cc32)CC1 (stereo not drawn)
· | -4.4% | -7% | -9% | CN(C(=O)Cn1nc(Cl)ccc1=O)C1CCCN(Cc2ccccc2F)C1 (stereo not drawn)
· | -2.9% | · | 3% | CC(OC(=O)c1ccc(-n2cnnn2)cc1)C(=O)Nc1ccccc1F (stereo not drawn)
· | 1.6% | · | 2% | O=C1CCN(Cc2ccccc2)C(=O)N1
